Cruzain inh Det = inhibitors of Trypanosoma cruzi cruzain with detergent | P25779 | purified cruzain, Z-FR-AMC fluorescence, 0.01% Triton | Potency, µM, for the others: max response, negative = inhibition, actives largely listed as inhibitors | hit rate 0.43% among 200,000 | AID 1478; active means well fitted curve in the direction sought with a large enough effect; inconclusive means small, poorly fitted or top-dose-only effect, or another doubt; inactive means no such curve, though single readings can be large; an effect the other way counts as inactive or inconclusive;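 further: plate controls were neutral wells for no effect and buffer without enzyme for full effect; nearly all actives have a fitted effect of over 40% in size; top concentration of the series not given in the record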
Target sequence (P25779 123-467 limits assumed): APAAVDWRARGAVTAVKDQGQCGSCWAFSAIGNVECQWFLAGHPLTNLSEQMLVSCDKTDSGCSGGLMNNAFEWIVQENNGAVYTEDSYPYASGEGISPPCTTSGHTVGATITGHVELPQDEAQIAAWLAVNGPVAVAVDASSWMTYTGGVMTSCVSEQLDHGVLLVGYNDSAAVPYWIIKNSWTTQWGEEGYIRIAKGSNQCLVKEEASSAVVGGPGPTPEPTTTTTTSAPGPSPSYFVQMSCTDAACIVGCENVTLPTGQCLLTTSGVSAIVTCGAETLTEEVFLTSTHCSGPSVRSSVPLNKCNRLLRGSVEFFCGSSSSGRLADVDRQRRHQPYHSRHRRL
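15 min RT preincubation of 1.5 nM cruzain with compound, then 2 uM Z-FR-AMC added; kinetic AMC fluorescence, 60 s delta. Triton X-100 0.01%, pH 5.5.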
StopGo reporter = lowers the luciferase signal of an FMDV 2A StopGo reporter; human cells with a luciferase reporter of 2A StopGo recoding; control for the full effect not named in the record; hit rate 1.2% among 410,000; Potency, µM (highest dose often 57.9 µM), without a hit: at the top dose signal change, negative = less light; active = well fitted falling curve with a large enough effect; inconclusive = small, poorly fitted or top-dose-only effect; inactive = no such curve, though single readings can be large or run the other way; tested in HEK293T cells; further: on the % scale 0 is the no-effect control and ±100 the full control effect; nearly all actives have a fitted effect of over 45% in size; luciferase light after 4 h
NS1 function inh = blocks influenza NS1 protein function; S. cerevisiae slowed by influenza A NS1, growth recovery by OD600; Potency, µM (highest dose often 46.1 µM), inactives show at the top dose activity, positive = more growth; hit rate 0.4% among 270,000; AID 2326; further: actives are rising curves; nearly all actives have a fitted effect of over 50% in size
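OD600 was taken as the measure of yeast growth restored by compound in an NS1-expressing S. cerevisiae strain. Cells had been washed out of glucose medium and diluted 1:100 into galactose -URA medium, pH 6.0.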
RE007 growth inh = less growth of the S. pombe RE007 Vpr strain; S. pombe RE007 Vpr strain, BacTiter-Glo ATP luminescence, 24 h; control for the full effect not named in the record; Potency, µM (highest dose often 92.2 µM), for the others: top-dose activity change, negative = less growth; hit rate 0.21% among 360,000; AID 651644; active = well fitted falling curve with a large enough effect; inconclusive = small, poorly fitted or top-dose-only effect; inactive = no such curve, though single readings can be large or run the other way;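 further: on the % scale 0 is the no-effect control and ±100 the full control effect; nearly all actives have a fitted effect of over 50% in size; the assay follows cell death caused by Vpr and the record does not say whether a fall means rescue or toxicity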
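Fission yeast RE007 carrying one integrated HIV-1 vpr copy, seeded at OD 0.01 in PMG+AL medium with 23 nL pinned compound. Grown 24 h at 30 degrees; viability read by BacTiter-Glo luminescence after 5 min.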
SARS PLpro yeast = SARS-CoV PLP inhibition in yeast. S. cerevisiae expressing SARS-CoV PLpro, growth rescue; control for the full effect not named in the record. Potency, µM (doses to about 32.9 µM), inactives show at the highest dose activity, positive = growth rescue. hit rate 0.19% among 330,000. AID 485353; further: 0% is about no effect; nearly all actives have a fitted effect of over 55% in size; growth read by luminescence after 48 h
LASV entry inh = Lassa virus entry inhibition; Potency, µM (doses to about 37.9 µM), without a hit: at the top dose activity change, negative = inhibition, most hits filed as inhibitors; Lassa virus pseudotype entry inhibition, cell reporter; control for the full effect not named in the record; hit rate 1.2% among 300,000; active means well fitted inhibition curve with a large enough effect; inconclusive means small, poorly fitted or top-dose-only effect, or effect the other way; inactive means flat fitted curve, though single readings scatter; tested in HEK293 cells; further: on the % scale 0 is the no-effect control and ±100 the full control effect; nearly all actives have a fitted effect of over 50% in size; luciferase read-out
MARV entry inh = blocks Marburg virus binding to or entry into cells. Marburg virus pseudotyped entry inhibition, cell reporter; control for the full effect not named in the record; about a third of the inactives were read at about 46 µM. Potency, µM (titrated, usually from 37.8 µM), for inactives: top-dose activity change, negative = inhibition, actives largely listed as inhibitors. hit rate 1.8% among 300,000; active = well fitted inhibition curve with a large enough effect; inconclusive = small, poorly fitted or top-dose-only effect, or effect the other way; inactive = flat fitted curve, though single readings scatter; tested in HEK293 cells; about a fifth of its hits are not listed in these tables; further: on the % scale 0 is the no-effect control and ±100 the full control effect; luciferase read-out
Cruzain noTriton = blocks cruzain activity in detergent-free assay; P25779; purified cruzain, Z-FR-AMC fluorescence, no detergent; Potency, µM, inactives show max response, negative = inhibition, hits mostly inhibitors; hit rate 2.3% among 200,000; AID 1476; active means well fitted curve in the direction sought with a large enough effect; inconclusive means small, poorly fitted or top-dose-only effect, or another doubt; inactive means no such curve, though single readings can be large; an effect the other way counts as inactive or inconclusive;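 further: plate controls were enzyme without inhibitor for no effect and buffer without enzyme for full effect; nearly all actives have a fitted effect of over 40% in size; top concentration of the series not given in the record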
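Purified cruzain at 1.5 nM, pre-incubated 15 min with compound at room temperature in 100 mM sodium acetate pH 5.5, 5 mM DTT, 0.00005% Triton X-100. Reaction started with 2 uM Z-FR-AMC; AMC fluorescence increase over 60 s gives rate.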
Numbers without * were called inactive; ? = inconclusive; nt = not tested or not shown; [ ] = dose if it differs, or a comment. Unless noted, the call rests on the fitted dose curve; in most records, active means well fitted rising curve with a large enough effect; inconclusive means small, poorly fitted or top-dose-only effect; inactive means no such curve, though single readings can be large or run the other way. Potency means the concentration at half of the fitted maximal effect.

# | mol | Cruzain inh Det | StopGo reporter | NS1 function inh | RE007 growth inh | SARS PLpro yeast | LASV entry inh | MARV entry inh | Cruzain noTriton
1 | O=[N+]([O-])c1ccc(S(=O)(=O)Nc2ccc(-c3ccc(N4CCCC4)nn3)cc2)cc1 | nt | 25% | nt | -6% | 4% | 23% | -20% | nt
2 | CCc1nnc(NC(=O)CSc2ccc(-c3ccc(C)cc3)nn2)s1 | nt | 35%[activator] | 7% | 1% | 0% | ? | -6% | nt
3 | CS(=O)(=O)N1CCCC(C(=O)N2CCOCC2)C1 (stereo not drawn) | 4.8% | nt | 1% | -10% | 4% | 7% | -1% | -7%
4 | C=CCCCCCCCCC(=O)Nc1ncccn1 | nt | -12% | -45% | ? | -1% | nt | nt | nt
5 | Cc1ccccc1CSc1nnc(C)n1N | 3.0% | -12% | 4% | -6% | 0% | 0% | 14% | -10%
6 | COc1cccc(C=NNc2nnc(NN=Cc3cccc(OC)c3OC)c3ccccc23)c1OC | nt | 20µM* | nt | -10% | nt | ? | ? | nt
7 | COc1ccc(CN(CC2CCCO2)S(=O)(=O)c2ccc(-n3cnnn3)c(OC)c2)cc1 (stereo not drawn) | nt | -10% | -8% | -10% | -1% | -29% | -12%[46.1 µM] | nt
8 | COC(=O)[C@@H]1CCCN1Cc1nc(Cc2ccccc2F)no1 | nt | 8% | -7% | 10% | 0% | 12%[46.1 µM] | -28%[46.1 µM] | nt
9 | N#CCCN1CCN(S(=O)(=O)c2ccc(S(=O)(=O)N3CCOCC3)cc2)CC1 | 1.7% | -2% | 2% | 7% | 19% | nt | 1% | -16%
10 | CCN1CCN(Cc2ccc(NC(=O)Nc3ccc(SC)cc3)cc2)CC1 | -7.2% | 10% | -6% | 7% | -1% | 12% | ? | -9%
11 | CC(C)(C)c1ccc(C(=O)Nn2cnnc2)cc1 | nt | 25% | 7% | -3% | 6% | -3%[46.1 µM] | 5%[46.1 µM] | nt
12 | CC(=O)c1ccc(N2CCN(S(=O)(=O)c3csc(C(N)=O)c3)CC2)cc1 | nt | -12% | 7% | -4% | 12% | nt | nt | nt
13 | CCN(CC)C(=O)C(=O)c1cn(CC(=O)NCc2ccc3c(c2)OCO3)c2ccccc12 | nt | -8% | 7% | -6% | -1% | -8%[46.1 µM] | ? | nt
14 | COc1ccc(NC(=O)Cn2ccc3c(OC)cccc3c2=O)cc1 | nt | -5% | 3% | -15% | 0% | -8% | -1%[46.1 µM] | nt
15 | Cc1cn2c(nc1=O)OC1C(O)C(COC(=O)c3ccccc3)OC12 (stereo not drawn) | 2.3% | nt | -25% | -8% | 2% | 20% | 9% | -2%
16 | COc1ccc(/C=C(/NC(=O)c2ccccc2)C(=O)N2CCCC2)cc1OC | nt | -1% | -1% | 6% | 2% | 4%[46.1 µM] | -12%[46.1 µM] | nt
17 | Cc1nc([N+](=O)[O-])c(Sc2nc3ccc([N+](=O)[O-])cc3[nH]2)n1Cc1ccccc1 | -9.1% | ? | -31% | -12% | 10µM* | 6% | 16% | -11%
18 | CC1(N=Cc2cc(Cl)ccc2O)COP(=O)(NC2CCCC2)OC1 (stereo not drawn) | nt | -6% | nt | 15% | nt | ? | 22% | nt
19 | COC(=O)c1ccc(CSc2nc3c(c(=O)n2-c2ccc(F)cc2)SCC3)o1 | -9.3% | nt | -30% | 15% | -18% | ? | -32% | -4%
20 | NS(=O)(=O)c1ccc(CCNC(=O)Cc2c[nH]c3ccccc23)cc1 | -2.2% | -16% | 11% | -11% | -14% | 12% | -5% | -7%
21 | CC1c2cc3c(cc2CCN1C(=O)c1ccc(C(F)(F)F)cc1)OCCCO3 (stereo not drawn) | nt | ? | -41% | -1% | 2% | nt | nt | nt
22 | COCCCN1C(=O)N(c2ccccc2)C(=O)C1CC(=O)Nc1ccccc1 (stereo not drawn) | nt | -15% | 4% | -2% | 2% | nt | nt | nt
23 | COC(C(=O)N/N=C(\C)c1ccc(C)cc1)c1ccccc1 (stereo not drawn) | nt | 5% | -7% | -5% | -1% | -3%[46.1 µM] | 11%[46.1 µM] | nt
24 | CCn1c(=O)cc(SCC(=O)N2CCC3(CC2)OCCO3)c2ccccc21 | 0.1% | 7% | -6% | -21% | 0% | 4% | -8% | -9%
25 | COc1ccc(/C=C/C(=O)Oc2cccc(/C=N/NC(=O)Cc3ccc(Br)cc3)c2)cc1 | nt | 42%[activator] | 1% | 4% | 0% | nt | nt | nt
26 | COc1ccc(-c2cc(=O)oc3c4c(ccc23)OCN(Cc2cccc(OC)c2)C4)cc1 | ? | -18% | nt | nt | nt | 6%[46.1 µM] | -23%[46.1 µM] | ?
27 | Cc1cccc(/N=C/c2c(O)ccc3oc4c(c23)CCCC4)n1 | -6.7% | -19% | -30% | -13% | -8% | ? | -10% | -1%
28 | Cc1cc(Br)ccc1OCC(=O)NNC(=O)c1ccc(NC(=O)C2CC2)cc1 | -0.4% | -12% | 4% | -6% | 0% | -10% | ? | 2%
29 | COc1ccc2nc(N/C(N)=N/S(C)(=O)=O)nc(C)c2c1 | nt | 7% | 5% | 1% | 1% | nt | nt | nt
30 | Cc1cccc(-n2cnc3cc([N+](=O)[O-])ccc32)c1 | -7.9% | 23% | -4% | -19% | -26% | ? | 1% | 3%
31 | NC(=O)c1ccccc1NS(=O)(=O)c1cccs1 | 5.1% | 9% | 3% | 22% | 0% | 23% | 26% | -1%
32 | COc1cccc(CNc2nc3nc(C)c(Cl)c(=O)n3[nH]2)c1 | nt | 41%[activator] | 2% | 2% | 1% | 3% | -5%[46.1 µM] | nt
33 | CCOc1ccccc1CNC(=O)CC(C)n1ccc(C)n1 (stereo not drawn) | -0.3% | -8% | nt | nt | nt | 7%[46.1 µM] | nt | 9%
34 | O=C(O)CC1(c2ccc(F)cc2)C2CC3CC(C2)CC1C3 (stereo not drawn) | nt | -16% | -53% | -2% | -6% | nt | nt | nt
35 | O=C(CCCN1C(=O)C(c2ccccc2)Oc2cccnc21)Nc1cccc(F)c1 (stereo not drawn) | nt | 1% | -18% | -2% | 0% | nt | nt | nt
36 | C=CCN1C(=O)C2(OCCCO2)c2ccccc21 | nt | -11% | -7% | -12% | 8% | 15% | 8% | nt
37 | COc1ccc(C(C)=O)cc1COc1cccnc1[N+](=O)[O-] | nt | -17% | ? | 2% | 0% | -16% | ? | nt
38 | CC(C)(C)c1ccc(Cn2c(=O)cnc3ccccc32)cc1 | nt | 13µM* | 10% | 3% | -3% | 10µM* | ? | nt
39 | O=C(Nc1cccc(C(=O)N2CCCC2)c1)c1ccccc1Cl | 6.0% | 13% | -2% | 13% | 13% | 3% | 19% | 0%
40 | O=C(COc1ccc2c3c(c(=O)oc2c1)CCCC3)NCCCN1CCOCC1 | nt | -8% | 3% | 1% | 14% | -8%[46.1 µM] | 2%[46.1 µM] | nt
41 | CCC(C)N(C)C1CCN(C(=S)Nc2cccc(OC)c2)CC1 (stereo not drawn) | nt | 9% | nt | 2% | -1% | 24% | -4%[46.1 µM] | nt
42 | COCc1cc(N2CCN(c3ccccc3F)CC2)nc(-c2ccccc2)n1 | nt | -11% | nt | 17% | -8% | -2% | 15%[46.1 µM] | nt
43 | CC1(C2CC2)NC(=O)N(CC(=O)Nc2ccccc2C#N)C1=O (stereo not drawn) | nt | 11% | nt | -24% | 1% | -7% | 20%[46.1 µM] | nt
44 | COc1ccccc1/C=N/NC(=O)CSc1ccc2ccccc2n1 | nt | -21% | -15% | -14% | -1% | -10%[46.1 µM] | ? | nt
45 | CC(=O)OC1COC(n2ccc3cc([N+](=O)[O-])ccc32)C(OC(C)=O)C1OC(C)=O (stereo not drawn) | -5.1% | -17% | 4% | 7% | -5% | 12% | -6% | 13%
46 | O=C(NNC(=O)c1cc(-c2ccccc2)nn1-c1ccccc1)c1ccccc1 | -8.3% | -24% | -1% | -20% | -1% | 0% | ? | -18%
47 | CSc1nc2nc3c(cn2n1)C(=O)CC(c1ccccc1)C3 (stereo not drawn) | -3.4% | -1% | 2% | -1% | 6% | 8%[14.3 µM] | 10% | 2%
48 | CC(=O)Nc1ccc(-c2csc(NC(=O)CCNC(=O)c3ccco3)n2)cc1 | nt | -19% | nt | 4% | -7% | -1%[46.1 µM] | -19%[46.1 µM] | nt
49 | Cc1ccc(NC(=O)Cn2nc(C(F)(F)F)c3c2CCC3)cc1 | -1.8% | -16% | 0% | -2% | -5% | -4% | -15% | -7%
50 | COCCCN1C(=O)C(=O)/C(=C(/O)c2ccc(OC(C)C)cc2)C1c1cccnc1 (stereo not drawn) | -2.6% | 0% | 5% | 12% | 3% | 16% | 23% | 5%
51 | COc1ccccc1CN(C)C(=O)C(NC(=O)Cc1cccc2ccccc12)C(C)C (stereo not drawn) | nt | -27% | -9% | 3% | 0% | ? | ? | nt
52 | CCCCNC(=O)C1CC(c2c(Cl)cccc2Cl)=NO1 (stereo not drawn) | -3.0% | 36%[activator] | -20% | 6% | -5% | nt | nt | 4%

High-throughput results from PubChem.
